2A firefly – FMDV 2A StopGo reporter, firefly signal; HEK cells with a luciferase reporter of 2A StopGo recoding; Potency, µM (series often up to 57.5 µM), for inactives: at the top dose signal change, negative = less light; actives 0.23% (n = 120,000); AID 1745856; active = well fitted falling curve with a large enough effect; inconclusive = small, poorly fitted or top-dose-only effect; inactive = no such curve, though single readings can be large or run the other way; also: nearly all actives have a fitted effect of over 60% in size; overnight with compound
2A Renilla – FMDV 2A StopGo reporter, Renilla signal; HEK cells with a luciferase reporter of 2A StopGo recoding; Potency, µM (doses to about 57.5 µM), for the others: top-dose signal change, negative = less light; actives 0.32% (n = 120,000); AID 1745857; active means well fitted falling curve with a large enough effect; inconclusive means small, poorly fitted or top-dose-only effect; inactive means no such curve, though single readings can be large or run the other way; also: nearly all actives have a fitted effect of over 55% in size; overnight with compound
* = called active by the depositor; [ ] = another dose, or the depositor's remark. % is scaled to controls: 0 for no effect and ±100 for the full control effect; potency is read from the fitted curve at half-maximal effect.

For O=C(NCc1cccs1)C(c1ccccc1)c1ccccc1 the results were 2A firefly -12.0% and 2A Renilla -9.2%[1.06 µM].
For Cc1ccccc1OCCOC(=O)c1ccc2c(c1)NC(=O)CS2 the results were 2A firefly -12.8% and 2A Renilla inconclusive.
Cc1ccc(Sc2c(C)nn(C(=O)COc3ccccc3)c2C)cc1 was read as 2A firefly 13.6% and 2A Renilla -3.3%.
For COc1ccc(-c2nnc(C(C)OC(=O)c3[nH]c(C)c(C(C)=O)c3C)o2)cc1 (stereo not given) the results were 2A firefly inconclusive and 2A Renilla inconclusive.
Screening CCCCCc1ccc(-c2ccc(-c3ccc(C#N)cc3)nc2)cc1 returned 2A firefly -6.9% and 2A Renilla -8.4%.
Screening O=C(CSc1ncnc2ccccc12)NCc1ccccc1 returned 2A firefly 7.0% and 2A Renilla -12.1%.
`CC(C)COC(=O)/C(C#N)=C\c1ccc(-c2ccccc2Cl)o1` gave 2A firefly -3.0% and 2A Renilla -16.0%.
Screening Fc1ccc(-c2nnn(Cc3coc(-c4ccccc4)n3)n2)cc1 returned 2A firefly 22.3% and 2A Renilla 21.8%.
COc1ccc(NC(=O)Cn2c(=O)oc3ccccc32)cc1 was read as 2A firefly -8.8% and 2A Renilla -5.2%.
Screening CCN(CC)Cc1ccc(C(=O)NC)o1 returned 2A firefly 4.0% and 2A Renilla -4.5%.
For CCOc1ccc(S(=O)(=O)N2CCN(c3ccc(NCc4ccccc4)nn3)CC2)cc1 the results were 2A firefly 8.0% and 2A Renilla 23.7%.
`C#CCN1CCN(C(=O)c2cc(-c3ccccc3)nc3ccc(C)cc23)CC1` gave 2A firefly 0.0% and 2A Renilla -14.1%[1.06 µM].
Screening CC1CCCC(NC(=O)c2ccccc2SCC#N)C1 (stereo not given) returned 2A firefly 15.0% and 2A Renilla 10.2%.
For Cc1cc(C(F)F)nn1Cc1nc2c3c4c(sc3ncn2n1)CCCC4 the results were 2A firefly -5.0% and 2A Renilla -9.2%.
`COc1ccc(C(=O)NCc2ccc(C)cc2)cc1` gave 2A firefly 76.6%[activator] and 2A Renilla 13.5%.
Screening COc1ccccc1Nc1c2c(nc3ccc(NC(=O)c4ccc(N(C)C)cc4)cc13)CCCC2 returned 2A firefly -25.7% and 2A Renilla 7.4%.
For Cc1ccc(NC(=O)CCS(=O)(=O)c2cc(Br)cc3c2N(C(=O)C2CC2)CC3)cc1 the results were 2A firefly 9.1% and 2A Renilla 14.4%.
`CCC(C(=O)Nc1ccc(N(C)C)cc1)n1cnc2ccccc2c1=O` (stereo not given) gave 2A firefly 0.0% and 2A Renilla 1.5%.
Screening Cc1cc2nc(CSc3ccc(NC(=O)C(C)C)cc3)c(=O)[nH]c2cc1C returned 2A firefly 3.4% and 2A Renilla -9.9%.
CC(=O)NC(CC(C)C)c1ccccc1 (stereo not given) was read as 2A firefly 7.9% and 2A Renilla 9.8%.
Screening CC(NC(=O)c1ccc(Cl)cc1)c1ccc(NC(N)=O)cc1 (stereo not given) returned 2A firefly -3.0% and 2A Renilla 2.0%.
For Cc1ccc(C)c(S(=O)(=O)c2nnn3c2nc(NC(C)C)c2sccc23)c1 the results were 2A firefly -11.4% and 2A Renilla 52.6%[activator].
For COc1ccccc1N1CCN(c2ncnc3c2cnn3-c2ccc(C)cc2)CC1 the results were 2A firefly inconclusive and 2A Renilla -11.3%.
Screening Cc1ccc(C(C)C)c(OCC(=O)Nc2cccc(-c3nc4ncccc4o3)c2)c1 returned 2A firefly -17.2% and 2A Renilla -15.0%.
`COc1ccccc1CNC(=O)Cc1cccc(C(F)(F)F)c1` gave 2A firefly 90.6%[activator] and 2A Renilla 22.4%.
`COc1cnc(CSc2ncccn2)cc1OCC(=O)N1CCCc2ccccc21` gave 2A firefly 13.0% and 2A Renilla 15.6%.
Screening COC(=O)c1ccccc1NC(=O)CCC(=O)N1CCOc2ccccc21 returned 2A firefly -10.8% and 2A Renilla -8.4%.
For O=C(COc1ccc2ccc(=O)oc2c1)NCCc1ccc(OC(F)F)cc1 the results were 2A firefly 36.2%[activator] and 2A Renilla 21.2%.
`CCOC(=O)c1ccc(NC(=O)CC2C(=O)N(c3ccc(F)cc3)C(=O)N2Cc2ccc(C)cc2)cc1` (stereo not given) gave 2A firefly -12.5% and 2A Renilla 17.1%.
O=C(c1cc(Br)ccc1Cl)N(C1CCCCC1)C1CCCCC1 was read as 2A firefly 11.8% and 2A Renilla 7.5%.
`COc1ccc(NC(=O)CC(C)S(=O)(=O)c2ccc3c(c2)NC(=O)CO3)cc1OC` (stereo not given) gave 2A firefly -12.2% and 2A Renilla -2.2%.
For CN1C(=O)C2(CC(=O)Nc3c2sc(C(=O)O)c3-c2ccccc2)c2ccccc21 (stereo not given) the results were 2A firefly -6.2% and 2A Renilla -10.1%.
Screening O=S(=O)(c1cc(F)cc(F)c1)N1CCCC1c1nnc2ccccn12 (stereo not given) returned 2A firefly -6.6% and 2A Renilla -6.1%.
`O=C1c2ccccc2NC(c2ccccc2)N1c1ccc(F)c(F)c1` (stereo not given) gave 2A firefly 3.8% and 2A Renilla -8.9%.
Screening CN1CCN(C(=O)c2cc(-c3ccc(F)cc3)nc3ccccc23)CC1 returned 2A firefly 98.1%[activator] and 2A Renilla 33.7%[activator].
For COc1cccc(CNC(=O)C2CCN(S(=O)(=O)c3ccc4c(ccn4C)c3)CC2)c1 the results were 2A firefly -23.8% and 2A Renilla 2.0%.
CCOc1ccc(OCC)c(NS(=O)(=O)c2c(C(=O)N3CCC(C)CC3)c(C)n(C)c2C)c1 was read as 2A firefly 4.6% and 2A Renilla 67.7%[activator].
Screening O=C(Nc1cccc(Cl)c1)c1nc2ccccc2nc1N1CCCC1 returned 2A firefly -3.8% and 2A Renilla 3.2%.
For CC(NC(=O)c1cc[n+]([O-])cc1)c1ccc(-c2ccccc2)cc1 (stereo not given) the results were 2A firefly 10.6% and 2A Renilla -26.7%.
Screening Cc1ccc(S(=O)(=O)n2nc(-c3ccco3)nc2NCc2ccccc2Cl)cc1 returned 2A firefly 51.2%[activator] and 2A Renilla 239.4%[activator].
`O=C(COC(=O)c1ccc2ccccc2n1)NCC(F)(F)F` gave 2A firefly -1.9% and 2A Renilla -14.5%.
Screening O=C(O)CCCNS(=O)(=O)c1ccc(I)cc1 returned 2A firefly -5.5% and 2A Renilla 2.1%.
C=CCNC(=O)NC(=O)CN(C)C(C)c1ccccc1OC (stereo not given) was read as 2A firefly 7.2% and 2A Renilla 5.7%.
Screening CCSc1oc(-c2ccccc2)nc1S(=O)(=O)c1ccc(F)cc1 returned 2A firefly -20.1% and 2A Renilla 18.3%.
Cc1ccc(OCCn2c(COc3ccc(Cl)cc3)nc3ccccc32)cc1 was read as 2A firefly -2.0% and 2A Renilla -6.4%.

Of the compounds above, 3 contain a cyano group.
Screening CCCCCc1ccc(-c2ccc(-c3ccc(C#N)cc3)nc2)cc1 returned 2A firefly -6.9% and 2A Renilla -8.4%.
`CC(C)COC(=O)/C(C#N)=C\c1ccc(-c2ccccc2Cl)o1` gave 2A firefly -3.0% and 2A Renilla -16.0%.
Screening CC1CCCC(NC(=O)c2ccccc2SCC#N)C1 (stereo not given) returned 2A firefly 15.0% and 2A Renilla 10.2%.

Next section.
`Cn1nc(C(=O)NN2C(=O)NC(C)(c3ccccc3)C2=O)c2ccccc2c1=O` (stereo not given) gave 2A firefly 8.9% and 2A Renilla 8.3%.
Screening CC(=O)Nc1ccc(N2C(=O)C(=O)/C(=C(/O)c3ccccc3)C2c2ccccc2)cc1 (stereo not given) returned 2A firefly 0.0% and 2A Renilla 9.5%.
`Cc1ccc(S(=O)(=O)c2nnn3c2nc(NCCc2ccccc2)c2sccc23)cc1` gave 2A firefly -21.5% and 2A Renilla 4.8%.
`Cc1nc2ccc(S(=O)(=O)N(CC(=O)Nc3ccc(Cl)cc3)Cc3ccccc3)cc2s1` gave 2A firefly -14.0% and 2A Renilla 27.5%.
Cc1cccc(NC2=CC(c3cccc(Br)c3)N(c3cccc(C)c3)C2=O)c1 (stereo not given) was read as 2A firefly 6.7% and 2A Renilla 9.1%.
Cc1ccc(-c2ccccc2C#N)cc1 was read as 2A firefly -4.6%[11.5 µM] and 2A Renilla -0.3%.
`Cc1cc2oc(=O)cc(CSc3ncn[nH]3)c2cc1C` gave 2A firefly 23.3% and 2A Renilla 19.7%.
Cc1ccc(CNC(=O)NCC(C)N2CCOCC2)s1 (stereo not given) was read as 2A firefly -4.7% and 2A Renilla -8.7%.
`Cc1cccc(NC(=O)c2n[nH]nc2Nc2ccc(Cl)cc2)c1C` gave 2A firefly inconclusive and 2A Renilla inconclusive.
For CNC(=O)CCN(C)C(=O)Nc1cccc(C#N)c1 the results were 2A firefly 2.3% and 2A Renilla 6.2%.
`COc1ccc(C(=O)Oc2ccc(C(C)=O)cc2)cc1Br` gave 2A firefly 2.9% and 2A Renilla -8.5%.
Cc1ccccc1C(=O)Nc1ccc2nc(SCC(=O)N(C)c3ccccc3)sc2c1 was read as 2A firefly -21.4% and 2A Renilla -0.6%.
For CC(=O)c1c(C)n(-c2cccc(C)c2)c2ccc(OC(=O)COc3ccccc3)cc12 the results were 2A firefly -34.2% and 2A Renilla -25.4%.
`COc1ccc(C(=O)C(C)OC(=O)c2ccc(C(C)=O)s2)cc1` (stereo not given) gave 2A firefly 20.2% and 2A Renilla -2.9%.
Screening COCCOC(=O)/C(C#N)=C\c1cc(Cl)c(O)c(OC)c1 returned 2A firefly 30.1%[activator] and 2A Renilla -11.6%[1.06 µM].
Screening CN(Cc1cccc(C#N)c1)C(=O)NCCNC(=O)CC1CCCC1 returned 2A firefly -1.1% and 2A Renilla 1.1%.
Screening Fc1ccc(SCCSc2nnc(-c3ccccc3F)n2C2CC2)cc1 returned 2A firefly 30.5%[activator] and 2A Renilla -8.2%[1.06 µM].
`O=C(Nc1ccc2nc(SCC(=O)N3CCCC3)sc2c1)c1cccc(Cl)c1` gave 2A firefly inconclusive and 2A Renilla -17.2%.
For CCN(CC)c1ccc(S(=O)(=O)N(CC)CC)cc1N the results were 2A firefly inconclusive and 2A Renilla inconclusive.
Screening Cc1nnc2c(Nc3cccc(O)c3)nc3ccccc3n12 returned 2A firefly 0.0% and 2A Renilla 109.1%[activator].
`CC(NC(=O)CSc1nnnn1-c1ccc(O)cc1)c1ccc(-c2ccccc2)cc1` (stereo not given) gave 2A firefly inconclusive and 2A Renilla inconclusive.
Screening Cc1cc(C(F)(F)F)c2c(N)c(C(=O)Nc3c(Cl)cccc3Cl)sc2n1 returned 2A firefly 8.9% and 2A Renilla 13.7%.
For CCN(Cc1ccccc1)C(=O)c1cc2c(s1)-c1c(C)cccc1OC2 the results were 2A firefly 21.4% and 2A Renilla 60.8%[activator].
Screening Cc1ccc(-c2nnc(SCCOc3ccccc3)o2)cc1 returned 2A firefly -7.9% and 2A Renilla -10.2%.
For Cc1nnc(NC(=O)CSc2nc3c([nH]c4ccccc43)c(=O)n2-c2ccc(Cl)cc2)s1 the results were 2A firefly 9.6% and 2A Renilla -4.5%.
For CCCCN(C)c1nnc(NC(=O)Nc2ccc(Br)c(C)c2)s1 the results were 2A firefly -7.8% and 2A Renilla -8.5%.
Cc1ccc(C)c(S(=O)(=O)NCCO)c1 was read as 2A firefly 0.0% and 2A Renilla 99.9%[activator].
CN(C)CCNc1cccc(Br)c1 was read as 2A firefly 0.9% and 2A Renilla 10.4%.
O=C(NC1CCCCCCC1)c1cc2cccc([N+](=O)[O-])c2[nH]1 was read as 2A firefly 17.8% and 2A Renilla inconclusive.
`CNc1c(NC(=O)c2cc(Br)ccc2OC)c(=O)oc2ccccc12` gave 2A firefly 12.3% and 2A Renilla -7.8%.
`Cc1ccc(CSc2nnc(COc3ccc(Cl)c(C)c3)n2C)cc1` gave 2A firefly -6.0% and 2A Renilla 3.1%.
CCc1cccc(CC)c1NC(=O)c1ccc2c(c1)CCN2S(=O)(=O)c1ccccc1 was read as 2A firefly -2.3% and 2A Renilla 16.1%.
COc1ccc(-c2nc(CSCC(=O)NCCc3ccccc3)c(C)o2)cc1 was read as 2A firefly 8.7% and 2A Renilla 41.7%[activator].
For N[C@H](CO)Cc1ccc(O)cc1 the results were 2A firefly -1.1% and 2A Renilla -6.6%[1.06 µM].
CC(OC(=O)/C=C/c1cccc2cccnc12)C(=O)Nc1ccccc1 (stereo not given) was read as 2A firefly 1.9% and 2A Renilla -5.6%.

Grouped by structure, those above with two or more sulfur atoms (8)
For Cc1ccc(C)c(S(=O)(=O)c2nnn3c2nc(NC(C)C)c2sccc23)c1 the results were 2A firefly -11.4% and 2A Renilla 52.6%[activator].
Screening CCSc1oc(-c2ccccc2)nc1S(=O)(=O)c1ccc(F)cc1 returned 2A firefly -20.1% and 2A Renilla 18.3%.
`Cc1ccc(S(=O)(=O)c2nnn3c2nc(NCCc2ccccc2)c2sccc23)cc1` gave 2A firefly -21.5% and 2A Renilla 4.8%.
`Cc1nc2ccc(S(=O)(=O)N(CC(=O)Nc3ccc(Cl)cc3)Cc3ccccc3)cc2s1` gave 2A firefly -14.0% and 2A Renilla 27.5%.
Cc1ccccc1C(=O)Nc1ccc2nc(SCC(=O)N(C)c3ccccc3)sc2c1 was read as 2A firefly -21.4% and 2A Renilla -0.6%.
Screening Fc1ccc(SCCSc2nnc(-c3ccccc3F)n2C2CC2)cc1 returned 2A firefly 30.5%[activator] and 2A Renilla -8.2%[1.06 µM].
`O=C(Nc1ccc2nc(SCC(=O)N3CCCC3)sc2c1)c1cccc(Cl)c1` gave 2A firefly inconclusive and 2A Renilla -17.2%.
For Cc1nnc(NC(=O)CSc2nc3c([nH]c4ccccc43)c(=O)n2-c2ccc(Cl)cc2)s1 the results were 2A firefly 9.6% and 2A Renilla -4.5%.

Screening data: PubChem, National Center for Advancing Translational Sciences (NCATS)

Compounds as they come. Share with any hit: about 0.53%.
